HSV replic up – enhancers of HSV replication in host cells, fold increase, host cell viability | HSV replication augmentation in cells | maximum fold increase | actives 0.005% (n = 220,000) | AID 1956, 2009;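 active = peak rise of 1.5-fold or more in the series; tested in PC3 cells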;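 note: first round at 10 µM; read as green reporter fluorescence; hits show the peak of a series up to 25 µM; 1 = signal of infected wells without compound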
PKD1 inh – inhibitors of human PKD1 kinase, biochemical, fluorescence polarization | Serine/threonine-protein kinase D1 (Homo sapiens), Q15139 | PKD1 kinase fluorescence polarization assay | inhibition, %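 (about 10 µM by stock and volumes)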 | actives 0.056% (n = 200,000) | AID 797, 2007;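 active = inhibition of 50% or more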;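 note: controls were vehicle for no effect and a reference inhibitor for full effect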
INS promoter inh – inhibitors of insulin promoter-driven GFP, primary screen, imaging, TRM-6 cells (human fetal islet line), eGFP reporter, cell count; reporter expression induced with tamoxifen; inhibition, % at 2 µM; actives 0.9% (n = 130,000); AID 1273, 2008;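 active = inhibition above the mean plus 3 SD, with well images judged a real hit on visual review, cut at about 60% in these data, passing the limit was not always enough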
RGS16-Gao – modulators of RGS16 binding to Galphao, primary screen, biochemical, human proteins, multiplexed bead flow cytometry | actives 0.38% (n = 220,000) | bead-based flow cytometry RGS16-Galphao binding, fluorescence; actives lie on both sides | AID 1441, 2008 | binding response (% of control), % at 10 µM;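 active = below 25% or above 175%, edge rows of some plates excepted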;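 note: Galphao activated by GDP with aluminum fluoride before binding; 100% = wells without compound and 0% = beads without RGS; some results beyond the cut were filed as inactive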
Target sequence (O15492 whole entry, looked up): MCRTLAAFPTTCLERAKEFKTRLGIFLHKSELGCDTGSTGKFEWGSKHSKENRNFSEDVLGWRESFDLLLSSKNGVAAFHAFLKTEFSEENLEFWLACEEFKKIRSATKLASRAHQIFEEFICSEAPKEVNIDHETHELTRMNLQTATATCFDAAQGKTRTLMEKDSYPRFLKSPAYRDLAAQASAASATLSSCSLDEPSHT
Target sequence (P09471 whole entry, looked up): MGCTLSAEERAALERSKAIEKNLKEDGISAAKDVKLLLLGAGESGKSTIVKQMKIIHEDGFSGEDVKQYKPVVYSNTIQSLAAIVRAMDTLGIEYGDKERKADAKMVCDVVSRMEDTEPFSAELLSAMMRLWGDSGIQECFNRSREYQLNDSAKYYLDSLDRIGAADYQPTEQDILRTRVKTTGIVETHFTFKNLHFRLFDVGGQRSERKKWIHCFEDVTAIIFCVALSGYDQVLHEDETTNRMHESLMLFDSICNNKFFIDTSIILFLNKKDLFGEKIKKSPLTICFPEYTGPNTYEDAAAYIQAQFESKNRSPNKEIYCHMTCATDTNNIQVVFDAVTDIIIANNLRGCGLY
GALR2 agonist – GALR2 receptor agonists, primary screen, cell-based | Galanin receptor type 2 (Homo sapiens), O43603 | GALR2-expressing cells, agonist activation read-out | activation, %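 (tested at 5 µM)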 | actives 0.48% (n = 140,000) | AID 803, 2007;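 active = above mean plus 3 SD of all compounds, about 5% in these data, not always enough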;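 note: 0% = vehicle buffer wells and 100% = reference agonist at full effect; tested in CHO reporter cells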
Target sequence (O43603 whole entry, looked up): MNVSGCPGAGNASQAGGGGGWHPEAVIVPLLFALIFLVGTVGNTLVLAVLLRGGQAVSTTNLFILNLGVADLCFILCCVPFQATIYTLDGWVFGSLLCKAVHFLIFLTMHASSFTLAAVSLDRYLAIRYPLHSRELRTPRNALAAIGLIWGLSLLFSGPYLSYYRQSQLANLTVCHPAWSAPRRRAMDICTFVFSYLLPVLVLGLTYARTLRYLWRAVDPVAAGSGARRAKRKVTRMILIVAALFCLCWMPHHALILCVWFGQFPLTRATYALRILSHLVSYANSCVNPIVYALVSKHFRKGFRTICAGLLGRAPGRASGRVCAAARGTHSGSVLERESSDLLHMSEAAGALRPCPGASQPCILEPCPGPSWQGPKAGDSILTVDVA
INS promoter inh cell count – further read-out of INS promoter inh, marked with its call; normalized cell count, %; measured here: cell count, toxicity; reference of the scale not given here;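 cells exposed to compound for 48 h; stained nuclei by imaging scaled within each plate; lower means fewer cells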
HSV replic up primary fold – further read-out of HSV replic up, marked with its call; fold increase; compound at 10 µM; measured here: primary screen fold increase 10 uM; tested in PC3 cells;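 GFP signal in the first replicate; 1 = infected wells without compound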
Numbers without * were called inactive; i = inactive; x = no result given.

The opening 10 compounds (preview)
SMILES | GALR2 agonist | HSV replic up primary fold | HSV replic up | INS promoter inh cell count | RGS16-Gao | PKD1 inh | INS promoter inh
O=C(Cn1cnc2c(cnn2-c2ccccc2)c1=O)Nc1ccc(S(=O)(=O)N2CCOCC2)cc1 | -0.6 | 0.86 | i | 85 | 20* | 1 | 25
Cc1csc(-c2cnn(-c3ccccc3)c2NC(=O)c2ccccc2)n1 | -1.4 | 0.91 | i | x | 105 | -14 | x
CC(Sc1nnc(NC2CCCCC2)s1)C(=O)Nc1ccc2c(c1)C(=O)c1ccccc1C2=O (configuration not stated) | -1.1 | 0.77 | i | 163 | 109 | -6 | 8
CCOC(=O)c1c(N)sc(C(=O)N2CCOCC2)c1C | -1.1 | 1.1 | i | 165 | 98 | -4 | 19
Nc1cc(S(=O)(=O)N2CCCCC2)ccc1Oc1ccc(Cl)cc1 | x | 1.1 | i | x | 100 | 0 | x
CC(=O)c1c(C)[nH]c(C(=O)Nc2nc(-c3ccccc3)c(C)s2)c1C | 1.1 | 0.92 | i | 90 | 106 | -4 | 29
CCN(CC)c1ccc(NC(=O)CN2CCN(CC(=O)Nc3ccc(F)cc3)CC2)cc1 | -1.2 | 0.94 | i | x | 98 | 0 | x
Cc1ccc(NC(=S)N2CCN(C(=O)c3ccccc3)CC2)c(C)c1 | x | 0.91 | i | x | 102 | -4 | x
COc1cc(C2C(C(=O)/C=C/c3ccccc3)=C(O)C(=O)N2c2ccccn2)ccc1O (configuration not stated) | x | 1.1 | i | 144 | 103 | -3 | 35
CC(=O)Oc1cccc(N2C(=O)C3CC=CCC3C2=O)c1 (configuration not stated) | -1.3 | 0.97 | i | 162 | 101 | -3 | 59

Main list, from the start:
SMILES | GALR2 agonist | HSV replic up primary fold | HSV replic up | INS promoter inh cell count | RGS16-Gao | PKD1 inh | INS promoter inh
O=C(Cn1cnc2c(cnn2-c2ccccc2)c1=O)Nc1ccc(S(=O)(=O)N2CCOCC2)cc1 | -0.6 | 0.86 | i | 85 | 20* | 1 | 25
Cc1csc(-c2cnn(-c3ccccc3)c2NC(=O)c2ccccc2)n1 | -1.4 | 0.91 | i | x | 105 | -14 | x
CC(Sc1nnc(NC2CCCCC2)s1)C(=O)Nc1ccc2c(c1)C(=O)c1ccccc1C2=O (configuration not stated) | -1.1 | 0.77 | i | 163 | 109 | -6 | 8
CCOC(=O)c1c(N)sc(C(=O)N2CCOCC2)c1C | -1.1 | 1.1 | i | 165 | 98 | -4 | 19
Nc1cc(S(=O)(=O)N2CCCCC2)ccc1Oc1ccc(Cl)cc1 | x | 1.1 | i | x | 100 | 0 | x
CC(=O)c1c(C)[nH]c(C(=O)Nc2nc(-c3ccccc3)c(C)s2)c1C | 1.1 | 0.92 | i | 90 | 106 | -4 | 29
CCN(CC)c1ccc(NC(=O)CN2CCN(CC(=O)Nc3ccc(F)cc3)CC2)cc1 | -1.2 | 0.94 | i | x | 98 | 0 | x
Cc1ccc(NC(=S)N2CCN(C(=O)c3ccccc3)CC2)c(C)c1 | x | 0.91 | i | x | 102 | -4 | x
COc1cc(C2C(C(=O)/C=C/c3ccccc3)=C(O)C(=O)N2c2ccccn2)ccc1O (configuration not stated) | x | 1.1 | i | 144 | 103 | -3 | 35
CC(=O)Oc1cccc(N2C(=O)C3CC=CCC3C2=O)c1 (configuration not stated) | -1.3 | 0.97 | i | 162 | 101 | -3 | 59
O=C(O)C1CCN(c2ccc(Cl)nn2)CC1 | x | x | x | 96 | 101 | 4 | 23
Cc1ccc(-n2c(C)cc(/C=N\NC(=O)CC(=O)NC(C)C)c2C)cc1 | -0.3 | 1 | i | 93 | 103 | -16 | 2
CCOc1cccc(CN2CCCC(C(=O)c3cccc(C(F)(F)F)c3)C2)c1O (configuration not stated) | x | 0.99 | i | x | 105 | -2 | x
CCN1CCN(C(c2cccnc2)c2cc(Cl)c3cccnc3c2O)CC1 (configuration not stated) | -3.6 | 0.85 | i | 55 | 101 | -4 | 16
Cc1ccc(CSc2nc3c(c(N(C)C)n2)CCCC3)cc1 | -1.2 | 0.92 | i | 67 | 179 | -11 | 17
CCn1c(SCC(=O)Nc2ccccc2C(=O)OC)nnc1-c1ccc(N)cc1 | 0.3 | 0.88 | i | x | 102 | 6 | x
CC(C)(C)C(=O)N1CCN(c2ccc(Cl)cc2[N+](=O)[O-])CC1 | 0.3 | 1.1 | i | 78 | 99 | -2 | 0
Cc1occc1C(=O)N/N=C/C=C/c1ccccc1 | x | 0.92 | i | 85 | 104 | 0 | -12
CCn1c(C)c(C(C)=O)c(N2CCC(C(N)=O)CC2)nc1=S | 0.8 | x | x | 151 | 104 | -6 | 15
Cc1ccc(NC(=O)c2ccc(Cl)nc2)cc1 | x | 0.9 | i | 135 | 100 | -4 | -56
CC(C)(C)[C@H]1C=C(C(=O)NCc2nc3ccccc3[nH]2)O[C@@H](OCCCCO)C1 | x | 0.9 | i | x | 102 | 6 | x
ON1C2CCCCC2N(O)C1c1ccccc1C(F)(F)F (configuration not stated) | -3.3 | 0.93 | i | 99 | 99 | 4 | -32
CC(C)CO/C(=N/S(=O)(=O)c1ccccc1)c1ccccc1 | -0.5 | 0.92 | i | 83 | 99 | 0 | -69
CCc1ccc(-c2cc(C(=O)N/N=C/c3ccccn3)[nH]n2)cc1 | x | 0.96 | i | 102 | 104 | -7 | -159
O=C(CSc1ncc(-c2ccc(F)cc2)n1Cc1ccco1)Nc1ccc2c(c1)OCO2 | -0.6 | x | x | x | 101 | -5 | x
O=C(CCCCCCCC(=O)NNC(=O)Nc1ccccc1)NNC(=O)Nc1ccccc1 | -0.5 | 1 | i | x | 103 | -1 | x
Nc1nnc(-c2cc3c(ccc4ccccc43)oc2=O)s1 | x | 1.3 | i | x | 99 | 2 | x
Cn1c(=O)[nH]c(=O)c2c1nc(N1CCCCC1)n2CCSc1nc2ccccc2o1 | -3.3 | 0.62 | i | x | 102 | 3 | x
O=C(NCc1ccccc1)Nc1cccn(Cc2cccc(F)c2)c1=O | -0.2 | 1 | i | 192 | 106 | -10 | 14
Cc1nnc(SCC(=O)N/N=C/c2ccc(-c3ccc(C)c(Cl)c3)o2)s1 | -1.7 | 1.1 | i | 125 | 100 | -2 | 26
Cc1ccc(N2CC(C(=O)Nc3ccc(S(=O)(=O)Nc4nccc(C)n4)cc3)CC2=O)cc1 (configuration not stated) | x | 0.9 | i | x | 112 | 6 | x
CCOC(=O)c1c(C)[nH]c(C(=O)OCC(=O)N2CCN(S(=O)(=O)c3ccccc3)CC2)c1C | -2.4 | 1.1 | i | 68 | 98 | -1 | 18
COc1ccc(S(=O)(=O)Nc2ccc(S(=O)(=O)N3CCCCC3)cc2)cc1C | -2.2 | 0.88 | i | 52 | 103 | 3 | 6
O=C(CSc1nc2ccccc2c(=O)n1CC1CCCO1)NCC1CCCO1 (configuration not stated) | -0.3 | 0.87 | i | x | 97 | 1 | x
CC(C)n1c(N2CCN(CC(=O)NCc3cccs3)CC2)nc2ccccc21 | -1.3 | 0.92 | i | 110 | 104 | 12 | -33
CCN(CC)c1ccc(NC(=O)CSc2nc3ccccc3c(=O)n2-c2cc(S(=O)(=O)N(C)C)ccc2C)cc1 | -2.8 | 0.88 | i | 74 | 130 | -6 | 46
Clc1cccc2sc(N3CCCCC3)nc12 | -0.6 | 1 | i | 129 | 104 | -6 | -30
Cc1ccc(C(=O)C(=S)N2CCOCC2)cc1 | 0.6 | 1 | i | 104 | 113 | -6 | -14
O=C(c1cccnc1)N1CCC(Oc2ccc(C(=O)N3CCCC(O)C3)cc2)CC1 (configuration not stated) | x | 1 | i | x | 102 | 0 | x
COc1ccc(NC(=O)/C=C/c2ccc(Br)o2)cn1 | x | 0.97 | i | x | 98 | 8 | x
CC(C)CC(=O)NC(=S)Nc1ccccn1 | -0.7 | 0.9 | i | 88 | 106 | -12 | 22
FC(F)(F)Oc1ccc(NC(=S)Nc2ccc(OC(F)(F)F)cc2)cc1 | x | 0.92 | i | x | 108 | x | x
NS(=O)(=O)c1cccc(NC(=O)CSc2ccccn2)c1 | -2.8 | 1.1 | i | 111 | 114 | -6 | 20
CC(=O)NC(NC(=S)Nc1ccc(N=Nc2ccccc2)cc1)C(Cl)(Cl)Cl (configuration not stated) | -0.9 | 0.89 | i | 129 | 101 | 1 | 32
Cc1ccc(C(C(=O)NC(C)(C)C)N(CC2CCCO2)C(=O)Cn2nnc(-c3ccc(C)o3)n2)cc1 (configuration not stated) | -0.5 | 0.9 | i | 104 | 101 | -8 | 18
COc1ccc(N(C(C)C(=O)N/N=C/c2ccc(OC)c(OC)c2)S(C)(=O)=O)cc1 (configuration not stated) | x | 0.96 | i | x | 93 | -2 | x
Cc1cc(Cl)c(S(=O)(=O)N2CCN(c3ccccn3)CC2)cc1OCC(N)=O | x | 0.9 | i | x | 100 | -2 | x
Cc1ccc(S(=O)(=O)NCCSCc2ccco2)cc1 | x | 1.1 | i | x | 102 | -1 | x
CNS(=O)(=O)c1ccc(NC(=O)c2ccccn2)cc1 | -1.5 | 0.93 | i | 178 | 108 | -2 | -54
Nc1c(C(=O)NCc2ccccc2)nnn1Cc1ccccc1 | -4.3 | 0.89 | i | x | 102 | -3 | x
O=C(COc1ccc(C(=O)c2ccccc2)cc1)NCC1CCCCC1 | -1.6 | 1 | i | 79 | 93 | 0 | 12
O=c1c2cc(N3CCOCC3)ccc2[nH]c(=S)n1CCCN1CCN(c2ccccc2F)CC1 | -1.1 | 0.99 | i | x | 168 | -13 | x
C=CCc1c(C)c(C#N)c2nc3ccccc3n2c1NCCN(C)C | 0.8 | 0.92 | i | 136 | 101 | -1 | 53
CCOC(=O)C1CN(C(C)(C)C)C(=O)C1=O (configuration not stated) | -1.3 | 1.1 | i | 118 | 95 | 6 | 14
Cc1cccc(C)c1NC(=O)/C(C#N)=C/c1cccs1 | -0.8 | 0.87 | i | 117 | 99 | -1 | -13
Cn1cc(CN(Cc2ccccn2)C[C@@H]2CCC(=O)N2)c(-c2ccccc2F)n1 | x | 0.94 | i | 116 | 102 | -7 | -4
Nc1nc(SCC(=O)N2N=C(c3ccc(Cl)cc3)CC2c2ccco2)n[nH]1 (configuration not stated) | x | 1.1 | i | x | 98 | x | x
COc1ccc(CCNC(=O)C(=O)NCCCN2CCOCC2)cc1 | x | 1 | i | x | 102 | -8 | x
CC(C)(C)C(=O)Nc1ccccc1C(=O)N1CCCC1 | -1.2 | 0.85 | i | 90 | 100 | -5 | 44
Cc1cccc(NC(=O)CNC(=O)COc2ccc(C(=O)c3ccc(F)cc3)cc2)c1C | 0.1 | 0.71 | i | 112 | 109 | 7 | 3

Other structures follow.
SMILES | GALR2 agonist | HSV replic up primary fold | HSV replic up | INS promoter inh cell count | RGS16-Gao | PKD1 inh | INS promoter inh
CCOC(=O)c1c(C)n(C)c2ccc(OC)c(NC(=O)c3cccs3)c12 | 0.6 | 1 | i | 85 | 94 | 0 | 7
Cc1ccc(C(=O)NCc2ccc3c(c2)CCO3)cc1C | x | 0.97 | i | x | 109 | x | x
CCOC(=O)c1ccc(NS(=O)(=O)c2cccc3nsnc23)cc1 | -3.1 | 0.89 | i | 127 | 102 | -10 | 36
COc1ccc(N=C2C(=Nc3ccc(OC)cc3)N(c3ccccc3)C(=S)N2C(=O)c2ccc(Cl)cc2)cc1 | -2.7 | 0.97 | i | 63 | 108 | -3 | -319
COCc1[nH]nc2c1C1(C(=O)Nc3ccc(F)cc31)C(C#N)=C(N)O2 (configuration not stated) | -0.8 | 0.9 | i | x | 81 | -6 | x
CCn1cc(Cl)c(C(=O)Nc2ccccc2C(N)=O)n1 | x | 0.96 | i | x | 102 | -9 | x
O=C(Cn1cnc2ccccc2c1=O)N(Cc1ccco1)c1ccc(O)cc1 | -0.3 | 1 | i | x | 98 | -1 | x
COc1ccccc1-c1nnc(NC(=O)C(C)C)s1 | -0.9 | 1 | i | 100 | 101 | -6 | 9
CCS(=O)(=O)N1CCN=C1SCc1cccnc1 | x | 0.91 | i | 87 | 104 | 4 | 8
Cc1c(Cc2ccccc2)c(NCCN(C)C)n2c(nc3ccccc32)c1C#N | x | 0.77 | i | x | 98 | x | x
CC1CCCC(NC(=O)NC(=O)CCl)C1C (configuration not stated) | -1.2 | 1 | i | 34 | 97 | -1 | 23
